BJeLR viability: BJeLR cell viability loss, primary screen, luminescence, CellTiterGlo ATP. actives 0.64% (n = 30,000). BJeLR fibroblasts viability, 48 h; HRASV12, hTERT and SV40 LT/ST transformed. viability loss activity score, % (concentration not given with the values); in the data active = viability loss activity score above about 50%; about a fifth of its hits are not listed in these tables;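 also: higher score means fewer live cells and less ATP luminescence; stock transfer was 50 or 100 nL into about 30 µL; 0% = vehicle wells and 100% = a reference killing control; one replicate is shown; the record names a cut of 85%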
A1 inhib: inducers of caspase activity in MEF A1-2A-BIM cells, primary screen, A1 inhibitor project, cell-based, CaspaseGlo luminescence | caspase-Glo luminescence, 3 h; percent of clofoctol signal, DMSO as zero | actives 0.51% (n = 21,000) | caspase activation, % (concentration not given with the values) | AID 2241, 2010;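 active = most replicate scores above 10, or exactly half above 10 with mean activity above 10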;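 also: effector caspase 3 and 7 activity cleaving a DEVD luciferin substrate; 50 nL library stock added to about 30 µL; numbers are from one replicate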
Starred values were filed as active, the others as inactive; . = no result given.

Values in the order: BJeLR viability | A1 inhib
> OCCN(C=NC1=NN(c2ccccc2)CC1)CCO
→ -7.1 | -0.3
> C[C@H]1CN([C@@H](C)CO)C(=O)c2cc(NC(=O)Cn3cnnn3)ccc2O[C@@H]1CN(C)Cc1ccccc1
→ -1.1 | 1.2
> O=S(=O)(Cc1ccccc1)Nc1nc2ccccc2s1
→ -2.8 | 0.5
> C[C@H]1CN([C@@H](C)CO)C(=O)c2cc(NS(=O)(=O)c3ccc(F)cc3)ccc2O[C@H]1CN(C)S(=O)(=O)c1ccc(F)cc1
→ -4.1 | -0.5
> C[C@@H]1CN([C@@H](C)CO)C(=O)c2cc(NS(=O)(=O)c3cccs3)ccc2O[C@@H]1CN(C)Cc1ccccc1
→ 0.8 | 0.2
> O=C(NC(=O)c1c(Cl)cccc1Cl)Nc1nc2cc(F)ccc2s1
→ 7.2 | -0.5
> C[C@H]1CN([C@@H](C)CO)C(=O)c2cccc(N(C)C)c2O[C@@H]1CN(C)C(=O)NC1CCCCC1
→ 0.7 | .
> Cc1ccc(S(=O)(=O)N(C)C[C@@H]2Oc3ccc(NS(C)(=O)=O)cc3C(=O)N([C@@H](C)CO)C[C@@H]2C)cc1
→ -11 | 0.0
> COc1ccc2c(c1OC)C(=O)N(c1ncn[nH]1)C2
→ 2.8 | 0.8
> C[C@H]1CN([C@@H](C)CO)C(=O)c2cccc(NC(=O)c3nc4ccccc4s3)c2O[C@H]1CN(C)C(=O)Nc1ccccc1
→ -3.3 | .
> CCOc1ccc(NC(=O)CCOc2ccccc2)cc1
→ -4.5 | -0.1
> C[C@@H]1CN([C@H](C)CO)C(=O)c2cccc(NC(=O)NC3CCCCC3)c2O[C@@H]1CN(C)Cc1ccc2c(c1)OCO2
→ 5.3 | .
> O=C1OC(c2cccc(F)c2)=N/C1=C\c1cccc2ccccc12
→ 1.4 | .
> CCc1nn(CC(=O)NCCc2ccc(S(N)(=O)=O)cc2)c(=O)c2cc3occc3n12
→ -7.5 | 0.4
> Cc1c(CNC(C)C23CC4CC(CC(C4)C2)C3)c(C(=O)O)c(C)n1Cc1ccccc1 (stereo not drawn)
→ 2.0 | 0.0
> CC(C)(O)/C=C/C1=CC(O)C(C)(O)CC1O (stereo not drawn)
→ -4.4 | -0.3
> COc1cc(O[C@@H]2O[C@H](CO[C@H]3OC[C@](O)(COC(=O)c4ccc(O)c(OC)c4)[C@H]3O)[C@@H](O)[C@H](O)[C@H]2O)ccc1O
→ 6.1 | 0.4
> CS/C(=N\S(=O)(=O)c1cc(C(F)(F)F)cc(C(F)(F)F)c1)N1CCOCC1
→ 11 | 0.4
> CC(=O)Oc1ccc2occ(C(=O)c3cc4ccccc4o3)c2c1
→ 1.2 | -5.5
> CC(=O)Oc1ccc2c(c1)CCC1C2CC[C@@]2(C)C1CC[C@@H]2OC(C)=O (stereo partly drawn)
→ 2.7 | 0.8

New compounds follow:
Values in the order: BJeLR viability | A1 inhib
> C/C=C1/[C@H](O[C@@H]2O[C@H](CO)[C@@H](O)[C@H](O)[C@H]2O)OC=C2C(=O)O[C@@H]3C[C@@H](C(C)CO)[C@H](COC(=O)C[C@H]21)[C@H]3C (stereo partly drawn)
→ -1.7 | -0.4
> Cc1cc(C)c(S(=O)(=O)NCc2ccc(C(=O)NCCc3ccc(Cl)cc3)cc2)c(C)c1
→ -0.7 | .
> Cc1ccc(S(=O)(=O)Nc2cccc3c2O[C@@H](CN(C)CC2CCCCC2)[C@@H](C)CN([C@@H](C)CO)C3=O)cc1
→ 2.8 | .
> C[C@@H]1CN([C@@H](C)CO)C(=O)c2cc(NC(=O)C3CC3)ccc2O[C@H]1CN(C)C(=O)Nc1ccccc1
→ -0.4 | 0.9
> CCOC(=O)c1c(-c2ccc(Br)cc2)csc1/N=C/C1C(=O)NC(=S)NC1=O
→ -2.7 | .
> CC(=Nc1c2c(nc3ccccc13)N(C)CC2)N(C)C
→ -3.8 | -0.3
> CC1(c2cccs2)CC(c2cccs2)=Nc2ccccc2N1 (stereo not drawn)
→ 2.1 | 1.1
> C[C@@H]1CN([C@H](C)CO)C(=O)c2cc(NS(=O)(=O)c3ccc(F)cc3)ccc2O[C@@H]1CN(C)CC1CCCCC1
→ 2.1 | -0.1
> COc1ccc(S(=O)(=O)N(C)C[C@@H]2Oc3ccc(NS(=O)(=O)c4cccs4)cc3C(=O)N([C@H](C)CO)C[C@H]2C)cc1
→ 1.3 | 0.4
> C[C@H]1CN([C@@H](C)CO)C(=O)c2cc(N(C)C)ccc2O[C@H]1CN(C)Cc1ccc(C(=O)Nc2ccccc2N)cc1
→ 15 | .
> C[C@@H]1CN([C@@H](C)CO)C(=O)c2cc(NS(=O)(=O)c3cccs3)ccc2O[C@H]1CN(C)S(=O)(=O)c1cn(C)cn1
→ 2.6 | 1.0
> Cc1nc(C2COc3ccccc3O2)ncc1S(=O)(=O)c1ccc(Cl)cc1 (stereo not drawn)
→ -4.6 | -0.9
> O=C(Cn1cc2c(n1)CCCCC2)N1CCCCC1
→ -8.0 | -0.5
> C[C@H](CO)N1C[C@H](C)[C@@H](CN(C)C(=O)Nc2ccc(F)cc2)Oc2c(NS(=O)(=O)c3ccccc3)cccc2C1=O
→ 3.4 | .
> CC(C)NC(=O)Nc1ccc2c(c1)C(=O)N([C@@H](C)CO)C[C@H](C)[C@H](CN(C)C(=O)NC(C)C)O2
→ 3.9 | -0.6
> Cc1noc(C)c1NC(=O)Nc1cccc2c1O[C@H](CN(C)C)[C@@H](C)CN([C@@H](C)CO)C2=O
→ -8.3 | .
> C=CCSC1=C(C#N)C(c2ccc(C)cc2)C(C(=O)OC)C(=O)N1 (stereo not drawn)
→ 0.2 | 0.5
> C[C@H]1CN([C@@H](C)CO)C(=O)c2cccc(NS(=O)(=O)c3cccs3)c2O[C@@H]1CN(C)C(=O)Nc1ccccc1
→ 3.7 | .
> COC(OC)c1ccc(C#N)c(SCc2ccc(Cl)cc2)n1
→ 1.7 | 0.7
> C[C@@H]1CN([C@@H](C)CO)C(=O)c2cc(NC(=O)CCN3CCOCC3)ccc2O[C@@H]1CN(C)S(=O)(=O)c1ccc(Cl)cc1
→ 3.5 | 0.3

Next part:
Values in the order: BJeLR viability | A1 inhib
> CNC[C@@H]1Oc2ccc(NC(=O)Nc3ccccc3)cc2C(=O)N([C@H](C)CO)C[C@@H]1C
→ -0.6 | 0.0
> C[C@H]1CN([C@@H](C)CO)C(=O)c2cc(NC(=O)Cc3cn(C)c4ccccc34)ccc2O[C@H]1CN(C)Cc1ccccc1
→ -1.5 | 0.5
> COc1ccc2c(c1)c(CC(=O)OCc1ccccn1)c(C)n2C(=O)c1ccc(Cl)cc1
→ -0.2 | .
> CC(C)NC(=O)c1ccc2c(=O)n(Cc3ccco3)c(=S)[nH]c2c1
→ -0.3 | -0.5
> CNC[C@H]1Oc2ccc(NS(=O)(=O)c3ccc(OC)cc3)cc2C(=O)N([C@H](C)CO)C[C@@H]1C
→ 4.9 | -0.4
> COc1ccc(S(=O)(=O)Nc2ccc3c(c2)C(=O)N([C@H](C)CO)C[C@@H](C)[C@@H](CN(C)C(=O)Nc2ccccc2)O3)cc1
→ -4.3 | -0.1
> C[C@@H]1CN([C@H](C)CO)C(=O)c2cc(NC(=O)Cc3ccccc3)ccc2O[C@H]1CN(C)S(=O)(=O)c1cccs1
→ -0.9 | 0.6
> Cc1noc(C)c1NC(=O)Nc1ccc2c(c1)C(=O)N([C@H](C)CO)C[C@@H](C)[C@H](CN(C)C(=O)Nc1cccc3ccccc13)O2
→ 3.5 | 0.7
> COc1ccc(S(=O)(=O)Nc2cccc3c2O[C@H](CN(C)C(=O)Nc2ccccc2)[C@@H](C)CN([C@@H](C)CO)C3=O)cc1
→ 0.0 | .
> CC(C)Cc1nc2ccccc2n1Cc1ccccc1
→ 9.2 | 0.2
> Cn1c(=O)c2c(nc(SCC(=O)NC(C)(C)C)n2C)n(C)c1=O
→ 1.5 | -0.7
> CC(C)NC(=O)N(C)C[C@@H]1Oc2c(NC(=O)Nc3cccc4ccccc34)cccc2C(=O)N([C@H](C)CO)C[C@@H]1C
→ -4.6 | .
> C[C@@H]1CN([C@@H](C)CO)C(=O)c2cc(NS(=O)(=O)c3ccc(Cl)cc3)ccc2O[C@@H]1CN(C)Cc1ccc(Cl)c(Cl)c1
→ -5.6 | 0.6
> CCSc1nnc2c(n1)OC1(Nc3ccccc3-2)C(=O)Nc2ccc(Br)cc21 (stereo not drawn)
→ -2.2 | -0.3
> C[C@@H]1CN([C@@H](C)CO)C(=O)c2cccc(NC(=O)c3cnccn3)c2O[C@H]1CN(C)Cc1ccccc1
→ 2.4 | .
> CCOC(=O)c1cnc(-c2cccs2)nc1Nc1ccc(Cl)cc1
→ -4.6 | -0.1
> C[C@H](CO)N1C[C@H](C)[C@H](CN(C)C(=O)Nc2ccc(F)cc2)Oc2ccc(NC(=O)Cn3cnnn3)cc2C1=O
→ -0.3 | 0.7
> O=C(O)[C@H](Cc1ccccc1)N1C(=O)c2ccncc2C1=O
→ -4.7 | .
> OC(CCN1CCCCC1)(c1ccccc1)c1ccccc1
→ 3.9 | -0.5
> Cc1ccc(NC(=S)Nc2ccc(C)cc2)cc1
→ 2.2 | -0.8

The listing continues:
Values in the order: BJeLR viability | A1 inhib
> CC1=C(C(=O)Nc2cccc(C(F)(F)F)c2)C(c2ccccc2)C2=C(CCCC2=O)N1 (stereo not drawn)
→ 2.7 | .
> COc1cc(Cl)c(C)cc1NC(=S)N(Cc1ccccc1C)CC1CCC(C(=O)O)CC1 (stereo not drawn)
→ -0.1 | 0.1
> CC(C)c1cc(C(C)C)c(S(=O)(=O)NCCCN2CCOCC2)c(C(C)C)c1
→ -5.3 | 0.0
> C[C@@H]1O[C@@H](OC[C@H]2O[C@@H](Oc3c(-c4ccc(O)c(O)c4)oc4cc(O)cc(O)c4c3=O)[C@H](O)[C@@H](O)[C@@H]2O)[C@H](O)[C@H](O)[C@H]1O
→ -8.0 | 0.5
> C[C@@H]1CN([C@@H](C)CO)C(=O)c2cc(NS(=O)(=O)c3cn(C)cn3)ccc2O[C@@H]1CN(C)Cc1ccc(C(F)(F)F)cc1
→ 2.8 | 0.4
> Cc1cccc(NC(=O)c2cnn(-c3ccc(F)cc3)c2C2CCN(C(=O)OC(C)(C)C)CC2)c1C
→ 0.5 | .
> COc1ccc(S(=O)(=O)Nc2ccc3c(c2)C(=O)N([C@H](C)CO)C[C@H](C)[C@@H](CN(C)S(C)(=O)=O)O3)cc1
→ 1.6 | -0.1
> Cc1ccc(NCC(=O)SCc2csc(Nc3ccccc3)n2)cc1
→ 2.9 | 0.2
> Cc1nn(-c2ccccc2)nc1CNC(=O)c1cccs1
→ 1.9 | -0.9
> N#CCCN(CCc1ccccn1)S(=O)(=O)c1ccc2c(c1)CCO2
→ -0.8 | 1.2
> N#Cc1c(-c2ccccc2)n2c(-c3ccccc3)nn(-c3ccccc3)c2nc1=O
→ -9.5 | 0.0
> Cc1cccc(C)c1NC(=O)C1(N(C)C(=O)CSc2nc3ccccc3o2)CCCCC1
→ -1.1 | -0.3
> CC1(C)CC[C@@]2(C(=O)O[C@@H]3O[C@H](CO)[C@@H](O)[C@H](O)[C@H]3O)C(C1)C1=CCC3[C@@]4(C)CC[C@@H](O[C@@H]5O[C@H](C(=O)O)[C@@H](O[C@@H]6OC[C@@H](O)[C@H](O)[C@H]6O)[C@H](O[C@@H]6OC[C@](O)(CO)[C@H]6O)[C@H]5O)C(C)(C)C4CC[C@@]3(C)[C@]1(C)C[C@H]2O (stereo partly drawn)
→ -5.7 | 0.8
> O=C(c1ccc(Br)cc1)c1cc2c(cc1Br)OCCCO2
→ 0.9 | 0.2
> C[C@@H]1CN([C@@H](C)CO)C(=O)c2cc(NS(=O)(=O)c3cn(C)cn3)ccc2O[C@H]1CN(C)S(=O)(=O)c1cn(C)cn1
→ -0.7 | -0.1
> Cc1ccccc1S(=O)(=O)Cc1ccc(C(=O)NC2CCCC2)o1
→ 0.9 | .
> COc1c(C)c2c(c(O)c1C/C=C(\C)CCC(=O)O)C(=O)OC2
→ 20 | 0.6
> C[C@@H]1CN([C@H](C)CO)C(=O)c2cccc(NS(=O)(=O)c3ccccc3)c2O[C@@H]1CN(C)Cc1ccncc1
→ 8.2 | .
> CCSc1nc2c(c(=O)n1-c1ccccc1)SCC2
→ -0.1 | .
> COc1ccc(CN(C)C[C@@H]2Oc3c(NC(=O)Nc4cccc5ccccc45)cccc3C(=O)N([C@H](C)CO)C[C@@H]2C)cc1
→ 2.4 | .

The list goes on.
Values in the order: BJeLR viability | A1 inhib
> CC(C)(C)C(=O)Cn1c(=O)n(CCCC(=O)NCc2ccco2)c(=O)c2sccc21
→ 3.7 | .
> C[C@H](CO)N1C[C@H](C)[C@H](CN(C)C)Oc2ccc(NC(=O)Cn3cnnn3)cc2C1=O
→ 0.0 | -0.3
> Cc1ccc2oc(=O)c3cc(C(=O)NCCCN4CCCCCC4)sc3c2c1
→ 2.8 | .
> COc1ccc(C(=O)NC(c2ccccc2)c2ccccc2)cc1
→ -1.7 | 0.7
> C[C@H](CO)N1C[C@H](C)[C@H](CN(C)Cc2ccc(Cl)c(Cl)c2)Oc2ccc(N(C)C)cc2C1=O
→ -3.2 | -0.2
> C[C@@H]1CN([C@@H](C)CO)C(=O)c2cccc(NC(=O)C3CCCCC3)c2O[C@@H]1CN(C)C
→ -3.7 | .

Molecules from the list above that have a CF3 group:
Values in the order: BJeLR viability | A1 inhib
> CS/C(=N\S(=O)(=O)c1cc(C(F)(F)F)cc(C(F)(F)F)c1)N1CCOCC1
→ 11 | 0.4
> CC1=C(C(=O)Nc2cccc(C(F)(F)F)c2)C(c2ccccc2)C2=C(CCCC2=O)N1 (stereo not drawn)
→ 2.7 | .
> C[C@@H]1CN([C@@H](C)CO)C(=O)c2cc(NS(=O)(=O)c3cn(C)cn3)ccc2O[C@@H]1CN(C)Cc1ccc(C(F)(F)F)cc1
→ 2.8 | 0.4

Screens as filed in PubChem.

An excerpt. The share of hits here may be higher or lower than overall.
